Assay outcomes: PubChem BioAssay, National Center for Advancing Translational Sciences (NCATS)
TRPML1 agonist: human mucolipin-1 channel agonism | activation, % (concentration not given with the values) | Q9GZU1 | AID 624414 | TRPML1-expressing cells, Ca2+ dye fluorescence, FDSS; host cell line not named in the record; reference of the full effect not given here | actives 0.12% (n = 410,000); in the data active = activation above about 50%; inconclusive = about 30% to 50%; inactive = below about 30%; also: 0% is about no effect; the text of the record puts the active cut at 80%
Target sequence (Q9GZU1 whole entry, looked up): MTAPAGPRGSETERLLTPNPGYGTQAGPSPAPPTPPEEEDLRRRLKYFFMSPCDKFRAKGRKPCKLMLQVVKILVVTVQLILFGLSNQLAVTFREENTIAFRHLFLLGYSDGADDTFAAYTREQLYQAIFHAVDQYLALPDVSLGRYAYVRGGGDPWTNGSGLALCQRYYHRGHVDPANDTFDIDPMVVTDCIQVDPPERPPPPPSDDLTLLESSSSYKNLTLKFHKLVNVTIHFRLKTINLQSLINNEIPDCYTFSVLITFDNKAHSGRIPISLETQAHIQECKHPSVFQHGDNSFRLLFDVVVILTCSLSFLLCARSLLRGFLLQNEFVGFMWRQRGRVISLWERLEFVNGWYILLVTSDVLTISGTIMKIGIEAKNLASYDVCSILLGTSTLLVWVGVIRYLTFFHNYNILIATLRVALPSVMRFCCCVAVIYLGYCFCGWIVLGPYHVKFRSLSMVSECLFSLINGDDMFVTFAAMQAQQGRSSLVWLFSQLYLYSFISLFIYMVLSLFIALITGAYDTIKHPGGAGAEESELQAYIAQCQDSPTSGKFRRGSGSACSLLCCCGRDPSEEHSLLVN
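TRPML1-DL cells, Tet-induced overnight (~16 h, 37 degrees C), loaded 45-90 min at room temperature with Ca8 no-wash calcium dye plus quencher. FDSS fluorescence: 10 s baseline, compound pin-transfer, 110 s agonist read, then EC80 54-4 (4uM final) and 110 s antagonist read.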
ClpP mod: qHTS Assay for Activators of ClpP; ATP-dependent Clp protease proteolytic subunit (Bacillus subtilis (strain 168)), P80244; AID 651965, 2013; actives 1.9% (n = 340,000); Potency, µM (series often up to 57.5 µM), for the others: at the top dose activity change, negative = active; purified B. subtilis ClpP, FRET peptide cleavage, 20 min; active = well fitted falling curve with a large enough effect; inconclusive = small, poorly fitted or top-dose-only effect; inactive = no such curve, though single readings can be large or run the other way; also: potency is read from the fitted curve at half-maximal effect; the source files actives as falling curves though it sought activators and does not explain the sign; nearly all actives have a fitted effect of over 65% in size; many hits overshoot -100%
Target sequence (P80244 whole entry, looked up): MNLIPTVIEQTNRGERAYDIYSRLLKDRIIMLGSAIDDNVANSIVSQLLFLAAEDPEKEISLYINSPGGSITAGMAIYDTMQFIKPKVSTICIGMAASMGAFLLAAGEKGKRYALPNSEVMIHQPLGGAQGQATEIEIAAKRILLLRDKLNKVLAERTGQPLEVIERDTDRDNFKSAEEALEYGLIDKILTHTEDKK
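FRET quenching reversal measured ClpP activation: 10 microg/mL B. subtilis ClpP at pH 8 with the FRET-FV decapeptide, read at 430 nm after 320 nm excitation. The 20-min minus 0-min signal was scaled between DMSO/no-enzyme wells and ADEP (5.8 microM final).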
Menin-MLL FL inh: displaces fluorescein MLL peptide from human menin; Fluorescence polarization, fluorescein-MLL peptide displacement from menin; FP activity change, % at 61.4 µM; 290,000 tested, under 10 active; inconclusive = falling polarisation curve, or a change in total fluorescence; inactive = total fluorescence flat and polarisation flat or rising; no compound was filed as active; the % refers to the polarisation; negative = inhibition;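 also: % of control where 0% means no effect; inhibitors lower the polarisation; unlabelled MLL peptide was the positive control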
gsp antag: antagonizes gsp, the McCune-Albright syndrome mutation; gsp-mutant cells, cAMP HTRF, 30 min; control for the full effect not named in the record; Potency, µM (series often up to 76.9 µM), inactives show top-dose activity change, negative = inhibition, most hits filed as inhibitors; actives 0.4% (n = 340,000); AID 624288; active = falling curve of any shape with a large fitted effect; inconclusive = falling curve, mostly with a smaller effect; inactive = flat or rising curve; cell line not stated here;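 also: intracellular cAMP measured with PDE inhibitor Ro 20-1724 present during compound exposure; potency is read from the fitted curve at half-maximal effect; % is scaled to controls: 0 for no effect and ±100 for the full control effect; nearly all actives have a fitted effect of over 65% in size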
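HTRF cAMP read-out (cAMP-d2 plus anti-cAMP antibody-K in lysis buffer, 30 min RT). Before lysis, cells are exposed to compounds with […] for 30 min at 37C in DPBS containing Ca/Mg, BSA and Tween 20.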
TRPML1 blocker: human mucolipin-1 channel inhibition; Q9GZU1; TRPML1-inducible cells, Ca2+ dye fluorescence, FDSS; active compounds read low; inhibition of EC80 agonist-evoked calcium signal; activity change, negative = inhibition, % (test concentration not listed); actives 0.02% (n = 390,000); in the data active means activity change below about -50%; inconclusive means about -30% to -50%; inactive means above about -30%;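 also: stimulus is agonist 54-4 at its EC80 concentration; % is scaled to controls: 0 for no effect and ±100 for the full control effect; compound concentration not given in the record; the text of the record puts the active cut at -80%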
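Tet-induced TRPML1-DL cells loaded with Ca8 no-wash calcium dye were read kinetically on FDSS. Compound addition was followed by EC80 agonist 54-4 (4 uM final); inhibition was read over 110 s.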
gsp ag: gsp mutant agonism | gsp mutant cells, cAMP HTRF, 30 min; control for the full effect not named in the record | Potency, µM (titrated, usually from 76.9 µM), without a hit: at the top dose activation (cAMP increase), usual class: activators | actives 0.13% (n = 340,000) | AID 624287; active = well fitted activation curve with a large enough effect; inconclusive = small, poorly fitted or top-dose-only effect, or another doubt; inactive = no such curve, though single readings can be large or run the other way; cell line not stated here;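 also: phosphodiesterase inhibitor Ro 20-1724 added with compounds to block cAMP breakdown; potency is read from the fitted curve at half-maximal effect; nearly all actives have a fitted effect of over 60% in size; about a fifth of the inactives were tested at one dose only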
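Cells in DMEM/10% FBS with G418 were pretreated with compounds in DMSO plus […] (300 uM stock) for 30 min at 37C. cAMP was measured by HTRF (cAMP-d2 plus anti-cAMP antibody-K) after 30 min at room temperature.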
An asterisk follows results filed as active; ? = inconclusive; . = not tested or not shown; & = joins results of further samples; [ ] = another dose, or the depositor's remark.

SMILES	TRPML1 agonist	ClpP mod	Menin-MLL FL inh	gsp antag	TRPML1 blocker	gsp ag
CCOC(=O)C[C@H]1c2ccccc2S(=O)(=O)N1Cc1cccc(C(F)(F)F)c1	2.3&-0.5	-1.2%&1.3%	.	4.0%	28.4	-23.2%
Cc1ccc(NC(=O)CCCN2C(=O)COc3ccc(C)cc32)c(Cl)c1	0.4	0.1%	.	.	10.7	.
Cc1c(C(=O)N2CCN(c3ccc(C(F)(F)F)cn3)CC2)oc2ccccc12	-0.9	-3.2%	0.2	1.1%	1.6	7.9%
COc1ccc(CC(C(=O)Nc2cc(C)ccc2C)/C(N)=N/O)cc1 (configuration not stated)	0.2	-1.9%	1.4	3.8%	9.3	10.7%
COC(=O)c1sc(NC(=O)CSc2nnnn2-c2cccc(OC)c2)nc1C	-1.1	3.5%	1.0	4.4%	1.6	-11.8%
O=C1C=C(c2cc3ccccc3o2)C[C@@H](c2ccc(F)cc2)C1	3.1	-1.5%	.	-9.5%	17.9	22.5%
O=C(CSC(=S)N1CCCC1)N/N=C/c1c(O)[nH]c(=S)[nH]c1=O	0.7	-2.8%	.	12.9%	2.1	-11.0%
COc1cc2c(cc1OC)-c1nncn1C(C)(C)C2	-0.7	?	5.8	9.9%	22.0	-7.4%
O=C(CSc1cccc(C(F)(F)F)c1)Nc1nnc(C2CC2)s1	-0.3	-1.4%	.	12.8%	4.6	6.2%
Cc1ncc(CO)c(CNc2ccc(Oc3ccccc3)cc2)c1O	2.3	-7.0%	-1.8	8.7%	29.4	-25.8%
NC(=O)c1ccc(N2CCC(C(N)=O)CC2)c([N+](=O)[O-])c1	-0.3	-1.9%	1.4	3.1%	14.6	1.9%
COC(=O)N1c2ccccc2CCc2ccccc21	-0.5	?	-2.5	0.6%	15.0	-3.1%[15.4 µM]
C=CCOc1ccc(/C(O)=C2\C(=O)C(=O)N(CCN(C)C)C2c2cccs2)cc1 (configuration not stated)	0.8	-1.3%	0.9	4.8%	-4.1	-10.9%
COC(=O)c1ccc(-c2noc(CN(Cc3ccncc3)CC3CCCO3)n2)cc1 (configuration not stated)	0.6	.	6.8	5.8%	2.1	3.0%[15.4 µM]
CCCC(=O)Nc1nnc(S(=O)(=O)N(C)c2ccccc2)s1	1.3	2.6%	.	.	4.2	.
CCCCC(=O)NNC(=O)N1c2ccccc2Sc2ccccc21	3.5	.	-1.3	-4.1%	0.5	-9.3%
CCOC(=O)N1CCN(C(=O)CSc2nnc(Cc3ccccc3)o2)CC1	0.3	0.6%	3.6	4.0%	2.2	-4.5%
CCC(C)(C)C1CCc2c(sc(NC(=O)c3ccoc3C)c2C(N)=O)C1 (configuration not stated)	0.8	-0.6%	4.2	2.3%	28.9	9.4%[15.4 µM]
CC(C)(C)c1[nH]nc2c1C(c1ccncc1)C(C#N)=C(N)O2 (configuration not stated)	-0.1	-3.5%	-3.6	-5.5%	22.9	-22.4%
O=C(NCCc1c[nH]c2ccccc12)C(F)(F)C(F)F	-0.5	-2.6%	4.0	6.4%	5.8	9.6%
COc1ccccc1NC(=O)C1CCN(S(=O)(=O)c2ccc3[nH]c4c(c3c2)CCCCC4)CC1	2.0	?	.	.	-0.5	.
Cc1[nH]c2ccccc2c1C(=O)CN1C(=O)NC2(CC(C)CC(C)(C)C2)C1=O (configuration not stated)	3.5	-3.9%	3.5	-12.4%	2.0	5.6%
COc1ccccc1OCC(=O)NC1CCSc2ccccc21 (configuration not stated)	0.9	1.9%	.	0.5%	-8.8	-17.4%
O=C(c1ccc(N2CCN(C(=O)c3ccccc3Br)CC2)cc1)c1cccc(F)c1	0.7	-16.0%	.	?	-6.9	?
CCOc1ccc(NC(=O)C2CCN(C(=O)NCc3ccccc3)CC2)cc1	-1.0	-1.4%	0.9	9.1%	12.7	?
CCCc1nc2ccccc2c(=O)n1N	-0.9	0.2%	4.4	13.7%	-8.3	-34.1%
COc1ccc(N(C(=O)c2ccco2)C(C(=O)NC2CCCC2)c2cccs2)cc1OC (configuration not stated)	-0.8	-0.6%	1.7	4.3%	-5.5	25.8%
CC(=O)c1ccc(Nc2nc(C)cc(C)n2)cc1	-0.1	-0.4%	1.6	-9.7%	22.8	-3.6%[15.4 µM]
Cc1[nH]c2ccccc2c1CCO	-0.8	-6.4%	-0.4	4.4%	-6.1	23.5%
CCCn1c(N2CCN(C(=O)N3CCCCC3)CC2)nc2ccccc21	2.1	-3.3%	-2.2	0.7%	21.7	-3.0%
CCS(=O)(=O)Nc1cc(C(=O)O)ccc1C	0.1	.	3.9	15.0%	-7.6	4.9%[15.4 µM]
Nc1c(-c2ccc(Cl)cc2)cnn1-c1cc(C(F)(F)F)cc(C(F)(F)F)c1	0.9	.	6.2	6.5%	30.4	0.5%
O=C(CSc1nc2ccccc2o1)N/N=C/c1ccco1	-0.2	-0.8%	-2.1	-19.2%	16.4	-18.2%
COc1ccc(N2CCN(C(=O)c3cc(-c4ccc(C)c(F)c4)on3)CC2)cc1	1.3	-15.7%	.	.	6.1	.
CC(=O)NC(c1ccccc1)c1cc(Cl)c2cccnc2c1O (configuration not stated)	0.9	.	-0.9	3.7%	6.3	-39.4%[inhibitor]
CCOc1ccc(CCNC(=O)Cn2ccc3ccccc3c2=O)cc1OCC	-0.1	0.4%	-4.3	0.0%	-9.7	0.3%[15.4 µM]
CCN1CCN(c2ccc(S(=O)(=O)N3CCOCC3)cc2NC(=O)/C=C/c2ccc(OC)cc2OC)CC1	-0.1	-10.2%	.	5.9%	-9.3	20.8%[15.4 µM]
CCCCn1c2c(c(=N)c3c1CCC3)CCC2	-0.4	-2.0%	-0.1	1.6%	-7.4	8.0%
CCCCN(C)S(=O)(=O)c1ccc(C(=O)N=c2sc3cc(NC(C)=O)ccc3n2C)cc1	-0.3	-10.2%	7.1	7.2%	-3.6	7.1%
Cc1ccc(N2CC(C(=O)Nc3ccc(S(=O)(=O)N4CCCC4)cc3)CC2=O)cc1C (configuration not stated)	-0.4	.	-1.1	-15.4%	5.1	1.8%
CN(C)S(=O)(=O)c1ccc(C(=O)NCC(=O)N/N=C/c2ccco2)cc1	1.3	0.4%	0.8	-2.0%	-14.1	10.2%
COc1cc(OC)cc(N2CCN(S(=O)(=O)c3ccc(-n4cnnn4)cc3)CC2)c1	-0.4&1.5	-0.8%&-1.8%	-4.2	13.2%	-14.7&28.1	-8.8%
N/C(=N\OC(=O)c1ccc(F)cc1)c1nonc1N	3.5	1.2%	7.7	10.1%	33.8	-0.8%
COc1cc(NC(=O)CN(C)S(=O)(=O)c2ccc(-c3ccc(=O)[nH]n3)s2)cc(OC)c1	0.3	1.8%	8.4	8.4%	5.7	-11.7%
CCCCN(C(=O)CCC(=O)Nc1cc(C)on1)C(C(=O)NC1CCCC1)c1ccccc1OCC (configuration not stated)	0.8	.	-3.9	-3.9%	0.8	8.0%[15.4 µM]
COc1cccc(CC2(CO)CCCN(Cc3cc(F)ccc3-n3cccn3)C2)c1 (configuration not stated)	2.7	.	0.1	-0.1%	13.9	-7.0%[15.4 µM]
COc1cccc(NC(=O)c2ccc(N3C(=O)C4CCC(C)CC4C3=O)cc2)c1 (configuration not stated)	0.2	1.5%	.	-12.1%	4.9	-75.4%[inhibitor]
CCCCN(CC)CCNC(=O)c1cc2c(=O)n(C)c3ccccc3c2s1	2.1	.	-5.7	4.7%	39.7	?
COC(=O)c1ccc(C23CC4(C2)[C@H](CN(C)[C@@H]4c2ccccc2)C3c2ccc(C(F)(F)F)cc2)cc1 (some centres not stated)	-0.5	-7.1%	-0.4&3.3	7.4%	41.6	.
CC(C)(C)c1ccc(/C=C/C(=O)N2CCOCC2)cc1	-0.8	22.4µM*	2.9	10.7%	38.8	24.0%
COC(=O)c1ccc(CN(Cc2ccc(C(=O)OC)o2)C(C)(C)C)o1	-1.7	-0.7%	6.0	0.1%	1.8	-20.3%
CCc1nnc(NC(=O)c2cc(-c3ccccn3)nc3ccc(Br)cc23)s1	-0.9	1.7%	-3.4	1.2%	2.5	1.5%[15.4 µM]
CCc1ccc(-c2cc3c(=O)n(CC(=O)NCCCN4CCC(Cc5ccccc5)CC4)nc(C)n3n2)cc1	0.5	-1.7%	.	13.3%	-5.8	2.8%
COc1ccc(N2CC(C(=O)Nc3cc(C(F)(F)F)ccc3N3CCCC3)CC2=O)c(OC)c1 (configuration not stated)	1.4	.	.	2.9%	10.9	16.0%[15.4 µM]
O=C(C1CCC1)N1CCc2cc(S(=O)(=O)N3CCN(c4ccccn4)CC3)ccc21	-0.1	-17.1%	2.0	-16.7%	11.9	-67.4%[inhibitor]
Cc1cccc(C(=O)OCC(=O)N(CC(C)C)c2c(N)n(Cc3ccccc3)c(=O)[nH]c2=O)c1O	0.8	.	.	15.5%	-0.1	24.7%[15.4 µM]
COc1cc(C(=O)NCC(=O)NCC(c2ccco2)N2CCCCC2)cc(OC)c1OC (configuration not stated)	1.7	-3.1%	.	0.2%	-6.9	8.3%
CC(=O)N1CCOc2ccc(S(=O)(=O)Nc3ccc(Cl)cn3)cc21	-0.4	-3.7%	5.1	-6.4%	0.5	23.1%
COc1ccc(-c2csc3ncnc(Nc4ccc(OC)cc4OC)c23)cc1	0.2	39.8µM*	.	.	22.2	.
COc1cc(NS(=O)(=O)c2c(C)[nH]c(C)c2C(=O)N2CCCCC2)cc(OC)c1OC	-1.0	1.5%	-3.5	1.6%	4.4	-0.7%
Later entries:
SMILES	TRPML1 agonist	ClpP mod	Menin-MLL FL inh	gsp antag	TRPML1 blocker	gsp ag
O=C(CSc1nnc(NC(=O)c2ccco2)s1)Nc1ccccc1F	0.3	0.5%	0.4	-14.9%	78.8	21.1%
CCOCc1nc2nc(Cl)c(Cl)nc2[nH]1	0.6	3.4%	.	.	-11.6	-5.0%
CCN1C(=O)[C@H]2[C@H]3CN=C(SCc4ccc(C#N)cc4)N3[C@@](C)(C(=O)OC)[C@H]2C1=O	4.5	1.1%	.	4.5%	11.8	.
COc1cccc(OCCCCSc2ncccn2)c1	2.0	-2.2%	1.7	-11.7%	-6.6	23.6%
CN1CCN(S(=O)(=O)c2ccc(C#N)cc2)C(c2ccccc2)C1 (configuration not stated)	4.1	2.4%	.	3.7%	18.4	1.8%
COc1ccc(S(=O)(=O)N2CCC(NC(=O)C(Cc3cccc(OC)c3OC)NC(C)=O)CC2)cc1 (configuration not stated)	0.2	.	-1.6	-0.2%	19.8	-41.1%[inhibitor]
